miR-21 reporter: raises the signal of a miR-21 reporter; 340,000 tested, under 10 active; HeLa miR-21 FLuc reporter, luciferase, 48 h; Potency, µM (highest dose often 38.3 µM), for inactives: top-dose reporter change, positive = more light; active = well fitted rising curve with a large enough effect; inconclusive = small, poorly fitted or top-dose-only effect; inactive = no such curve, though single readings can be large or run the other way;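 note: % of control where 0% means no effect; miR-21 action dims this reporter so a rising signal means less miR-21 action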
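Using DMEM plus 10% FBS, HeLa miR-21-FLuc cells are incubated with test compounds (final up to about 40uM) for 48 hours; firefly luciferase signal is then imaged following reagent-mediated lysis.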
Rango release inh: inhibition of RanGTP-driven Rango-importin beta dissociation | AID 540253 | Biochemical FRET Rango-importin beta, RanGTP-induced dissociation | Potency, µM (doses to about 46.1 µM), inactives show at the top dose activity change, negative = inhibition | actives 0.071% (n = 340,000) | O95149+P62826; active means falling FRET ratio curve, often poorly fitted, with flat reads before Ran was added; inconclusive means other falling curves, or compound fluorescence or quenching; inactive means flat or rising ratio curve;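 note: potency is the fitted concentration of half-maximal effect; % of control where 0% means no effect; nearly all actives have a fitted effect of over 45% in size; -100% = wells without RanGTP and RCC1; the record marks most hits as doubtful in a second field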
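Rango (0.1 uM)–importin beta (0.25 uM) complex; RanGTP-RCC1 trigger; 45 min RT; CFP/YFP FRET read.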
GLA inh pH 4.5: alpha-galactosidase A (human) inhibition, pH 4.5. purified enzyme, 4-MU-alpha-Gal fluorescence, pH 4.5. activity change, negative = inhibition, % at 105 µM. 230,000 tested, under 10 active; inconclusive = small, poorly fitted or top-dose-only inhibition, or a rising curve; inactive = flat fitted curve, though single readings scatter; no compound was filed as active;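 note: 0% = full activity with enzyme and -100% = basal without enzyme; dose as in the result columns while the protocol names 77 µM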
Target sequence (P06280 whole entry, looked up): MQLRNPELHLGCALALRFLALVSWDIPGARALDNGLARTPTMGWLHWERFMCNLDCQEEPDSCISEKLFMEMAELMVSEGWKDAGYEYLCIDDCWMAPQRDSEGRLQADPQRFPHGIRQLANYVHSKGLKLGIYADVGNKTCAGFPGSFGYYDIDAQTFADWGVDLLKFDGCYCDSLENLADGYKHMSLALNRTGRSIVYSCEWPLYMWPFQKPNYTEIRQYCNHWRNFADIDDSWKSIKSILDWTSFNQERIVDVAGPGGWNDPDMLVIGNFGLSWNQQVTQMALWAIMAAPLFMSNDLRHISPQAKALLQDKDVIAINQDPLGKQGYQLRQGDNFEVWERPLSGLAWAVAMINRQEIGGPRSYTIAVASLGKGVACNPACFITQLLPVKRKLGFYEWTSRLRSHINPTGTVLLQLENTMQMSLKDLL
Rango complex inh: inhibitors of Rango-importin beta complex formation | Q14974 | actives 0.031% (n = 340,000) | Potency, µM (titrated, usually from 92.2 µM), without a hit: at the top dose inhibition of complex formation | Rango CFP/YFP FRET sensor + importin beta, 45 min; active = rising FRET ratio curve, often small or poorly fitted; inconclusive = mostly compound fluorescence or quenching in the first reads; inactive = flat curves in all reads;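 note: potency is the fitted concentration of half-maximal effect; 0% = DMSO wells and 100% = buffer wells lacking importin beta; nearly all actives have a fitted effect of over 15% in size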
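Inhibition scored from the CFP 486 nm/YFP 530 nm FRET ratio 45 min after adding 0.125 microM importin beta to 50 nM Rango biosensor preincubated 5 min with compound (room temperature, PBS with DTT, Tween-20, BSA). No-importin wells as positive control.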
Active calls of the source: *; ? = inconclusive; / = no result given. Not all compounds are listed, so the mix of outcomes need not match the whole.

SMILES	miR-21 reporter	Rango release inh	GLA inh pH 4.5	Rango complex inh
COc1ccc(Cc2nc3ccc(C(=O)N(C)C(C)c4nccs4)cc3o2)cc1 (stereo not drawn)	-1%	-4%	/	-0.4%
CCOc1ccc(C(=O)OCCN(C)C)cc1	-7%	8%	5	-0.2%
CN(CC1COc2ccccc2O1)C(=O)CSc1nncs1 (stereo not drawn)	/	5%	/	-2.5%
Clc1ccc(Sc2cc(Cl)c(-c3ccccc3)nn2)cc1	-2%	-1%	-10	0.1%
Cc1ccccc1CN1CCN(CC(=O)NCc2ccco2)C1=O	0%	-3%	-6	-6.0%
COc1ccc(CN(Cc2cccn2C)S(=O)(=O)c2ccc(F)cc2)cc1	-1%	1%	4	1.3%
CC1=C(C(=O)Nc2ccc(C(=O)NCCCN3CCCCC3)cc2)SCCO1	-7%	20%	/	0.0%
NC(=O)Nc1ccc(C(=O)OCC(=O)NC2CCCCC2)cc1	1%	1%	3	0.1%
C=CCn1c(SCC(=O)N(C)c2c(N)n(Cc3ccccc3)c(=O)[nH]c2=O)nnc1-c1ccccc1OC	-2%	14%	/	3.6%
O=C(CSc1nnc(-c2cccs2)n1-c1ccccc1)NCc1ccco1	3%	-6%	-3	-1.7%
O=C(/C=C/c1ccc(F)cc1)NC(=S)NNC(=O)c1cccnc1	-22%	14%	-2	2.9%
CC(=O)C1=C(C)NC(=O)CC1c1ccccc1Cl (stereo not drawn)	0%	?	2	6.0%
CCC(=O)c1ccccc1OCCCN1C(=O)NC(C)(C)C1=O	-4%	5%	2	-0.4%
CC(OC(=O)c1ccc(-n2cnnn2)cc1)C(=O)N(C)c1ccccc1 (stereo not drawn)	/	13%	/	2.9%
CCNC(=O)c1cccc(NC(=O)C2CC(=O)N(CCc3ccccc3)C2)c1 (stereo not drawn)	/	14%	/	-0.9%
O=C(c1ccccc1)N1CCCCC(S(=O)(=O)c2ccccc2)C1=O (stereo not drawn)	-10%	0%	2	-0.7%
Cc1cccc(NC(=O)c2nc[nH]c2C(=O)N2CCc3ccccc3C2)c1	/	0%	/	1.5%
CC(OC(=O)C1CCN(S(=O)(=O)c2ccc3c(c2)OCCO3)CC1)C(=O)N(C)c1ccccc1 (stereo not drawn)	/	17%	/	-2.9%
COc1cc(/C=C2/C(=O)NN(c3cccc(Cl)c3)C2=O)cc(OC)c1O	-1%	-2%	/	-2.0%
COc1ccc(C(=O)N2CCC(O)(c3ccc(F)cc3)CC2)cc1OC	-10%	22%	-9	-1.1%
O=C(O)/C=C/C(=O)NCCC(c1ccccc1)c1ccccc1	-4%	0%	-2	0.9%
COc1cc(-n2ccnc2SC)c(Cl)cc1Cl	-8%	-8%	7	-0.4%
Cc1cc(NCCCN2CCOCC2)n2nc(C)c(-c3ccccc3)c2n1	-10%	37%	5	-0.9%
CCC(=O)Nc1ccccc1N1CCN(c2ccc(F)cc2)CC1	5%	9%	/	1.9%
COC(=O)c1ccccc1NC(=O)NCC1CCCO1 (stereo not drawn)	-4%	-12%	4	1.4%
CC(C)(C)OC(=O)N/N=C/c1ccc(N2CCOCC2)s1	-31%	14%	0	7.0%
COc1cccc(NC(=O)Nc2nnc(CC(=O)NCc3ccccc3)s2)c1	-4%	26%	7	2.1%
CC(Oc1cc2oc(=O)cc(-c3ccccc3)c2cc1Cl)C(=O)NCC1CCC(C(=O)O)CC1 (stereo not drawn)	-12%	-10%	/	?
O=C(CCCCCn1c(=S)[nH]c2ccc(N3CCOCC3)cc2c1=O)NCCc1ccccc1	-17%	?	2	?
COc1ccccc1CNCCS(=O)(=O)NCc1ccccc1OC	/	19%	/	-0.8%
Cc1ncc(CSc2nnnn2-c2ccccc2)c(N)n1	-1%	1%	8	-4.6%
Cc1ccc2c(c1)C1CN(C)CCC1N2C(=S)Nc1ccc(Cl)cc1Cl (stereo not drawn)	8%	-2%	-26	0.6%
COc1cc(Cl)ccc1OCc1cc(C(=O)N2CCC(N(C)C)C2)no1 (stereo not drawn)	-16%	-4%	/	-1.5%
COc1ccccc1NC(=O)Cn1cnc2c1c(=O)n(C)c(=O)n2C	0%	-9%	-2	-1.2%
CCc1nc(SCC(=O)Nc2ccccc2Cl)n[nH]1	4%	4%	/	0.0%
N#Cc1c(C#N)c(O)c2ccccc2c1O	-3%	?	-9	0.3%
CCn1c(CC(=O)Nc2ccc(Cl)c(Cl)c2)nnc1SCc1ccc(Cl)cc1	-5%	0%	0	-0.1%
Cc1cc(C)cc(NC(=S)NCC2CCN(C(C)c3ccccc3)C2)c1 (stereo not drawn)	6%	-4%	-16	-2.5%
Cc1ccc(C(C)NC(=O)c2ccc3c(c2)OCCO3)cc1C (stereo not drawn)	16%	-13%	/	-4.2%
COCc1cc(C)nc(N2CCCCC2)c1C#N	-6%	-21%	-7	1.8%
Cc1nc(Nc2ccccc2F)c2nnn(Cc3ccccc3Cl)c2n1	0%	?	/	?
O=C(NN1CCOCC1)c1ccccc1	1%	0%	/	0.3%
O=C(Nc1nc(-c2ccc(F)c(F)c2)cs1)Nc1ccc(F)cc1F	-10%	4%	/	0.2%
CCCn1c(SC(C)C(=O)NCC2CCCO2)nc2cc(Cl)ccc2c1=O (stereo not drawn)	/	-21%	/	1.5%
Cc1c([N+](=O)[O-])c(C(=O)NC2CCCC2)nn1C	-1%	7%	/	-1.6%
CC(=O)N1CCC(=NNC(=O)c2cc3ccccc3cc2O)CC1	-7%	-4%	/	0.1%
CSCC[C@H](NC(=O)OC(C)(C)C)C(=O)N1CCC(C(=O)N[C@@H](C)C(=O)NC(C)c2ccccc2)CC1 (stereo partly drawn)	-1%	3%	/	-4.5%
O=C(Nc1nccs1)C12CC3CC(C1)CC(C(=O)Nc1nccs1)(C3)C2	21%	15%	-3	1.9%

A section of the results above:
SMILES	miR-21 reporter	Rango release inh	GLA inh pH 4.5	Rango complex inh
CSCC[C@H](NC(=O)OC(C)(C)C)C(=O)N1CCC(C(=O)N[C@@H](C)C(=O)NC(C)c2ccccc2)CC1 (stereo partly drawn)	-1%	3%	/	-4.5%
O=C(Nc1nccs1)C12CC3CC(C1)CC(C(=O)Nc1nccs1)(C3)C2	21%	15%	-3	1.9%

(continued)
SMILES	miR-21 reporter	Rango release inh	GLA inh pH 4.5	Rango complex inh
CCN(CC)S(=O)(=O)c1cccc(-c2nnc(C(=O)c3ccc(C(F)(F)F)cc3)o2)c1	1%	-4%	0	0.4%
C=Cc1ccc(C(=O)N2CCCC(CCC(=O)N3CCN(c4ccccn4)CC3)C2)cc1 (stereo not drawn)	15%	13%	/	4.1%
CCCCOC(=O)c1ccc(NC(=O)C(CCS(C)(=O)=O)NC(C)=O)cc1 (stereo not drawn)	1%	6%	-3	-2.2%
NC(=O)C1CCN(C(=O)c2cc3ccccc3cc2O)CC1	/	-7%	/	-3.9%
Cc1ccc2c(CC(=O)NCCc3ccc(S(N)(=O)=O)cc3)coc2c1	0%	-7%	-23	1.5%
O=C(COC(=O)c1ccco1)Nc1nc2c(F)c(F)c(F)cc2s1	-5%	-6%	/	?
O=C(Cn1c(=O)[nH]c2ccccc2c1=O)Nc1cccnc1	-1%	13%	/	0.0%
CCOC(=O)Cc1csc(NS(=O)(=O)c2cc(Cl)ccc2Cl)n1	-3%	6%	/	?
CCc1ccc(NC(=O)/C(C#N)=C\c2ccc(OC)c(C(=O)O)c2)cc1	-3%	6%	2	5.0%
O=S(=O)(NCC1CCCO1)c1ccc(-c2ccc(Cl)cc2)cc1 (stereo not drawn)	5%	10%	-2	-0.8%
O=C(NCc1ccco1)/C(=C/c1ccc([N+](=O)[O-])cc1)NC(=O)c1ccco1	0%	-6%	/	2.2%
Clc1ccc(CN2CCCCCCC2)cc1Cl	-5%	-12%	7	1.2%

Random excerpt: six entries already listed
SMILES	miR-21 reporter	Rango release inh	GLA inh pH 4.5	Rango complex inh
O=C(Cn1c(=O)[nH]c2ccccc2c1=O)Nc1cccnc1	-1%	13%	/	0.0%
CCOC(=O)Cc1csc(NS(=O)(=O)c2cc(Cl)ccc2Cl)n1	-3%	6%	/	?
NC(=O)C1CCN(C(=O)c2cc3ccccc3cc2O)CC1	/	-7%	/	-3.9%
CCCCOC(=O)c1ccc(NC(=O)C(CCS(C)(=O)=O)NC(C)=O)cc1 (stereo not drawn)	1%	6%	-3	-2.2%
O=S(=O)(NCC1CCCO1)c1ccc(-c2ccc(Cl)cc2)cc1 (stereo not drawn)	5%	10%	-2	-0.8%
C=Cc1ccc(C(=O)N2CCCC(CCC(=O)N3CCN(c4ccccn4)CC3)C2)cc1 (stereo not drawn)	15%	13%	/	4.1%

The list continues:
SMILES	miR-21 reporter	Rango release inh	GLA inh pH 4.5	Rango complex inh
O=C(Nc1ccc2oc(-c3cccnc3)nc2c1)c1ccc2c(c1)OCCO2	-25%	0%	-1	1.0%
O=C(COC(=O)/C=C/c1ccc(Cl)cc1)NCCc1ccccc1	-4%	-15%	-2	4.2%
CC(C)(C)C(=O)N1CCN(CCN2C(=O)c3cccc4cccc(c34)C2=O)CC1	-3%	9%	/	-0.8%
COc1ccc(CCNC(=O)Cn2nc(C)c3c(C)n(-c4ccccc4)nc3c2=O)c(OC)c1	4%	22%	/	2.3%
CCOC(=O)c1c(C)[nH]c(C)c1S(=O)(=O)N(C)CC(=O)NCc1cccc(C)c1	-10%	-4%	/	-3.7%
CCOC(=O)C1=C(C)Nc2ccccc2N=C1N	3%	-8%	0	-1.9%
Cc1no[n+]([O-])c1COc1cccc(/C=C2\N=C(c3ccccc3)OC2=O)c1	-6%	11%	4	0.2%
CC(C)n1c(=S)[nH]c2ccccc2c1=O	1%	11%	-11	0.5%
COc1ccc(Br)cc1/C=N/Nc1ccccn1	-8%	2%	/	1.4%
O=c1[nH]c(-c2cccs2)nc2ccccc12	-26%	22%	4	0.8%
CN1CCN(CCC(=O)N2c3ccccc3Sc3ccc(Cl)cc32)CC1	0%	-16%	4	-3.3%

Quoted from the listing.
COCc1cc(C)nc(N2CCCCC2)c1C#N @ Rango release inh = -21%
CC(C)(C)OC(=O)N/N=C/c1ccc(N2CCOCC2)s1 @ Rango complex inh = 7.0%
CCNC(=O)c1cccc(NC(=O)C2CC(=O)N(CCc3ccccc3)C2)c1 (stereo not drawn) @ Rango release inh = 14%
O=C(CCCCCn1c(=S)[nH]c2ccc(N3CCOCC3)cc2c1=O)NCCc1ccccc1 @ GLA inh pH 4.5 = 2
O=C(NCc1ccco1)/C(=C/c1ccc([N+](=O)[O-])cc1)NC(=O)c1ccco1 @ miR-21 reporter = 0%
Clc1ccc(CN2CCCCCCC2)cc1Cl @ miR-21 reporter = -5%

Three entries out of the list above, ordered by the value under miR-21 reporter, low to high.
compound	miR-21 reporter
Cc1no[n+]([O-])c1COc1cccc(/C=C2\N=C(c3ccccc3)OC2=O)c1	-6%
O=C(COC(=O)/C=C/c1ccc(Cl)cc1)NCCc1ccccc1	-4%
CN1CCN(CCC(=O)N2c3ccccc3Sc3ccc(Cl)cc32)CC1	0%
